PINK1 expr mod – modulators of PINK1 expression; PINK1 immunofluorescence, high-content cytometry, 24 h; Potency, µM (titrated, usually from 76.6 µM), inactives show top-dose activation (PINK1 increase), actives largely listed as activators; 410,000 compounds, 0.2% hits; AID 624263; active = well fitted activation curve with a large enough effect; inconclusive = small, poorly fitted or top-dose-only effect; inactive = flat fitted curve, though single readings scatter; cell line not stated here;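 note: % of control where 0% means no effect; nearly all actives have a fitted effect of over 65% in size; a mitochondrial uncoupler was the plate control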
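Compound titrations (5 concentrations, 24 h) on a stable cell line; DMSO and CCCP controls. Endpoint: fixed-cell PINK1 immunofluorescence with mitochondrial, cell and nuclear markers, scanned by microplate cytometer.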
Numbers without * were called inactive. Potency is the fitted concentration of half-maximal effect. Not all compounds are listed; rates above refer to the full screens.

`CCC(C(=O)NCCc1cc(OC)ccc1OC)n1nc(C)c2c(C)n(-c3ccccc3)nc2c1=O` (stereo unspecified) gave PINK1 expr mod -1.4%.
For O=C(Cn1ncc2c3ccccc3n(Cc3cccc(Cl)c3)c2c1=O)NCCC1=CCCCC1 the results were PINK1 expr mod -0.4%.
Screening CO[C@H]1[C@H](NC(=O)c2ccsc2)c2ccccc2C12CCN(Cc1cc3ccccc3o1)CC2 returned PINK1 expr mod -0.1%.
O=C(NCC1CCC2(CCN(Cc3cnn(-c4ccc(F)cc4)c3)CC2)O1)c1ccccc1 (stereo unspecified) was read as PINK1 expr mod 0.2%.
For CCNC(=O)c1sc2ncnc(NCCCN3CCOCC3)c2c1C the results were PINK1 expr mod -0.5%.
Screening Cn1cc(S(=O)(=O)c2cccc(Cl)c2)c(=O)c2cc(F)c(N3CCN(c4ccccc4)CC3)cc21 returned PINK1 expr mod 0.9%.
`Cc1cc(OCC(=O)NCC2(N(C)C)CCCCC2)cc(C)c1Cl` gave PINK1 expr mod -0.6%.
COc1ccc(S(=O)(=O)NC(C)(C)CO)cc1-c1nnc2c3ccccc3c(C)nn12 was read as PINK1 expr mod 2.0%.
`COC(=O)c1cc2oc3ccccc3c2n1Cc1nc(-c2cccc(Cl)c2)oc1C` gave PINK1 expr mod 1.0%.
For CCOC(=O)c1ccc(NC(=O)Cn2c(=O)cc(C(F)(F)F)c3c(C)nn(C)c32)cc1 the results were PINK1 expr mod 1.8%.
CCC1CCCCN1CCCNC(=O)c1ccc2c(c1)N(Cc1ccccc1)C(=O)c1ccccc1S2(=O)=O (stereo unspecified) was read as PINK1 expr mod 0.1%.
CC(NC(=O)c1cccnc1)c1nnc2n1CCN(Cc1ccc(F)cc1F)CC2 (stereo unspecified) was read as PINK1 expr mod 0.0%.
Screening COc1ccc(NC(=O)c2c(C)oc3ccc(O)c(CN4CCN(C)CC4)c23)cc1Cl returned PINK1 expr mod 2.1%.
Screening Cc1ccc(Nc2c3c(nc4nc(-c5cccs5)nn24)CCCC3)cc1F returned PINK1 expr mod -0.6%.
`Cc1ccc(CNC(=O)Cn2c(SCC(=O)Nc3ccc(F)cc3)nc3ccccc32)cc1` gave PINK1 expr mod 1.9%.
Screening CC(=O)Nc1ccc(NC(=O)CCc2c(C)nc3c(c(C)nn3-c3ccc(C)cc3)c2C)cc1 returned PINK1 expr mod 0.7%.
For CCc1ccc(Nc2cc(C(=O)NCCCN(C)c3ccccc3)c3ccccc3n2)cc1 the results were PINK1 expr mod -0.2%.
For Cc1ccc(-c2nnc(SCc3ccccc3C#N)o2)cc1 the results were PINK1 expr mod 1.3%.
`CCCCOc1ccc(S(=O)(=O)N2CCN(c3ccccc3OCC)CC2)cc1` gave PINK1 expr mod 3.3%.
For COc1cccc(NC(=O)C2CCN(c3nnc(C)c4c(C)n(-c5ccccc5)nc34)CC2)c1 the results were PINK1 expr mod -0.9%.

Looked up one by one from above, 3 records:
Screening COc1ccc(NC(=O)c2c(C)oc3ccc(O)c(CN4CCN(C)CC4)c23)cc1Cl returned PINK1 expr mod 2.1%.
`CCCCOc1ccc(S(=O)(=O)N2CCN(c3ccccc3OCC)CC2)cc1` gave PINK1 expr mod 3.3%.
For CCc1ccc(Nc2cc(C(=O)NCCCN(C)c3ccccc3)c3ccccc3n2)cc1 the results were PINK1 expr mod -0.2%.

Following part
Screening Cc1ccc(N2CCN(C(=O)c3cn(C)c4ccc(S(=O)(=O)N5CCC(C)CC5)cc4c3=O)CC2C)cc1 (stereo unspecified) returned PINK1 expr mod 5.1%.
COc1cccc(CN2CCCC(c3nc(C)ncc3-c3ccc(F)cc3)C2)c1OC (stereo unspecified) was read as PINK1 expr mod 0.2%.
Screening N#Cc1ncc(Br)cn1 returned PINK1 expr mod -0.1%.
Screening COc1ccc(NC(=O)CSc2ncc3c(n2)-c2ccccc2N(Cc2ccc(C)cc2)S3(=O)=O)cc1Cl returned PINK1 expr mod 3.2%.
Screening CC(=O)N1c2nc(C(C)C)nn2C2(CCCCC2)[C@@H]2CCCC[C@@H]21 returned PINK1 expr mod -0.5%.
For Cc1c(Cl)cccc1NC(=O)CSc1ncc(S(=O)(=O)c2ccc(C(C)C)cc2)c(=O)[nH]1 the results were PINK1 expr mod -0.6%.
For Cc1ccc(N2C(=O)c3n[nH]c(C)c3C2c2ccccc2Cl)cc1 (stereo unspecified) the results were PINK1 expr mod 6.3%.
Screening CCc1cnc2c(c1SCC(=O)NCc1ccccc1)c(=O)n(C)c(=O)n2C returned PINK1 expr mod 0.7%.
Screening COc1ccc(NC(=O)c2nnn(CC(=O)Nc3cc(C)cc(C)c3)c2N)c(OC)c1 returned PINK1 expr mod 2.0%.
`CCc1ccc2oc(C(=O)N(Cc3cccc(Cl)c3)Cc3ccco3)c(C)c2c1` gave PINK1 expr mod 14%.
`O=C(Nc1ccc(-c2nc3cc(Cl)ccc3o2)cc1)c1cc2ccccc2o1` gave PINK1 expr mod 0.8%.
Screening COc1cccc(CNC(=O)c2cc3ccc4cccnc4c3[nH]2)c1 returned PINK1 expr mod 0.1%.
`Cc1ccc(NC(=O)CSc2nc3nccnc3c(=O)n2CCc2c[nH]c3ccccc23)cc1` gave PINK1 expr mod -0.2%.
COc1cccc(-c2cn3ncsc3n2)c1 was read as PINK1 expr mod -0.1%.
For O=C(NCCSCc1ccccc1)C1CCN(S(=O)(=O)Cc2ccccc2)CC1 the results were PINK1 expr mod 5.3%.
`O=C(NCc1cccnc1)C(=O)NCC(c1cccnc1)N1CCN(c2ccccc2F)CC1` (stereo unspecified) gave PINK1 expr mod -1.5%.
`COC(=O)CSc1nnc2n(-c3ccccc3)c(=O)c3c4c(sc3n12)COC(C(C)C)C4` (stereo unspecified) gave PINK1 expr mod -1.0%.
`CCc1cc(C(=O)NC(C)c2ccccc2)no1` (stereo unspecified) gave PINK1 expr mod 1.1%.
`CCN(CC)c1ccc(NC(=O)CSc2nc(-c3cccs3)cc(C(F)(F)F)n2)cc1` gave PINK1 expr mod 3.4%.
`Cc1cc2nc(-c3cccc(NC(=O)COc4ccc(C(C)C)cc4)c3)oc2cc1C` gave PINK1 expr mod 5.1%.
`COc1cccc(C2C(C(=O)Nc3ccc(Cl)cc3)=C(C)Nc3nc4ccccc4n32)c1` (stereo unspecified) gave PINK1 expr mod -0.1%.
Screening C=C1C=C(C(F)F)n2ncc(C(=O)NCc3ccccc3OC)c2N1 returned PINK1 expr mod -0.5%.
For O=C1CC(c2nnc(Cc3cccc(Cl)c3)o2)CN1c1ccccc1 (stereo unspecified) the results were PINK1 expr mod -1.2%.
For CCN1CCN(C(=O)c2ccc3c(c2)N(Cc2ccc(Cl)cc2)C(=O)c2ccccc2S3(=O)=O)CC1 the results were PINK1 expr mod 0.2%.
Screening COc1cc(C2c3c(oc4ccccc4c3=O)C(=O)N2c2nncs2)cc(OC)c1OC (stereo unspecified) returned PINK1 expr mod 0.0%.
Cc1ccccc1NC(=O)c1c(NC(=O)C(F)(F)F)sc2c1CCCCC2 was read as PINK1 expr mod inconclusive.
`Cc1cccc(Cn2cc3c(=O)n(CC(=O)Nc4cccc(C)c4C)nc-3c3cc(F)ccc32)c1` gave PINK1 expr mod 14%.
Screening COc1ccccc1NC(=O)CC1Sc2ccc(C(F)(F)F)cc2NC1=O (stereo unspecified) returned PINK1 expr mod 16%.
For CCOc1ccccc1CNC(=O)C(CC)n1nc(C)c2c(C)n(-c3ccccc3)nc2c1=O (stereo unspecified) the results were PINK1 expr mod -2.6%.
Screening COc1ccc(Nc2cc(C(=O)NCCCN(C)Cc3ccccc3)c3ccccc3n2)cc1 returned PINK1 expr mod 6.6%.
`COc1ccc(N2CCN(C(=O)c3cc4cc5ccc(Cl)cc5nc4o3)CC2)cc1` gave PINK1 expr mod 0.6%.
Screening Cc1nc2ccc(S(=O)(=O)N(CC(=O)Nc3ccc(F)cc3)Cc3ccccc3)cc2s1 returned PINK1 expr mod 7.4%.
Cc1cc(S(=O)(=O)Nc2ccc(-c3ccc(N4CCCCC4)nn3)cc2)c(C)cc1Cl was read as PINK1 expr mod -0.1%.
For CC(=O)c1ccc(S(=O)(=O)Nc2cccc(-c3ccc(N4CCCCC4)nn3)c2)cc1 the results were PINK1 expr mod -0.4%.
`COc1ccc(NC(=O)Cn2cc(S(=O)(=O)c3ccccc3)c(=O)c3cc(C)ccc32)cc1Cl` gave PINK1 expr mod -0.3%.
For CCc1cccc(NC(=O)CN2Cc3ccccc3C2=O)c1 the results were PINK1 expr mod 0.1%.
CC(=O)CSc1nnc2cc(C)c3cc(C)cc(C)c3n12 was read as PINK1 expr mod -0.6%.
`CCOc1ccc(NC(=O)c2oc3ccccc3c2NC(=O)Cc2ccc(OC)c(OC)c2)cc1` gave PINK1 expr mod 4.3%.
For COc1ccccc1NC(=O)CN1CCN(CC(=O)Nc2ccc(F)c(F)c2)CC1 the results were PINK1 expr mod -5.3%.
`Cc1cccc(-c2nnn3c2nc(NCCC(C)C)c2ccccc23)c1` gave PINK1 expr mod -0.1%.

Brought forward from above: five compounds, followed by the next part.
For CCc1cccc(NC(=O)CN2Cc3ccccc3C2=O)c1 the results were PINK1 expr mod 0.1%.
CC(=O)CSc1nnc2cc(C)c3cc(C)cc(C)c3n12 was read as PINK1 expr mod -0.6%.
`CCOc1ccc(NC(=O)c2oc3ccccc3c2NC(=O)Cc2ccc(OC)c(OC)c2)cc1` gave PINK1 expr mod 4.3%.
For COc1ccccc1NC(=O)CN1CCN(CC(=O)Nc2ccc(F)c(F)c2)CC1 the results were PINK1 expr mod -5.3%.
`Cc1cccc(-c2nnn3c2nc(NCCC(C)C)c2ccccc23)c1` gave PINK1 expr mod -0.1%.
Screening CC1=C(C(=O)Nc2ccccc2)C(c2cccnc2)n2nc(SCc3ccccc3Cl)nc2N1 (stereo unspecified) returned PINK1 expr mod 1.9%.
For COc1cc(NC(=O)CSc2nc3nc(C)c(Cc4ccc(C)cc4)c(C)n3n2)cc(OC)c1OC the results were PINK1 expr mod -0.7%.
CCCc1nn2cc(-c3ccc(C)c(C)c3)nc2s1 was read as PINK1 expr mod 8.1%.
`O=C1CC(c2cccc(O)c2)c2cc3c(cc2N1)OCO3` (stereo unspecified) gave PINK1 expr mod 0.2%.
Screening Cc1ccc(-n2c(=O)c3c(c4cc(C)ccc4n3C)n(CC(=O)Nc3ccc(F)cc3)c2=O)cc1 returned PINK1 expr mod 9.0%.
Screening Cc1ccc(NC(=O)C(=O)NCCc2csc3nc(-c4ccccc4C)nn23)cc1Cl returned PINK1 expr mod 1.5%.
O=C(Nc1c(C(=O)Nc2ccc(F)cc2)oc2ccccc12)c1ccccc1F was read as PINK1 expr mod 2.7%.
`CCc1ccc(S(=O)(=O)Nc2cccc(-c3ccc(N4CCC(C)CC4)nn3)c2)s1` gave PINK1 expr mod 1.5%.
CCOc1ccc(-c2nc(CNC(=O)NC3CCCCC3)c(C)o2)cc1 was read as PINK1 expr mod 0.5%.
For N#Cc1ccc(C(=O)NCc2ccc3c(c2)CCN3C(=O)c2ccc(F)cc2)cc1 the results were PINK1 expr mod 1.9%.
`COc1ccccc1CN1CCCC(n2cc(C(=O)N3CCCCC3)nn2)C1` (stereo unspecified) gave PINK1 expr mod 1.2%.
For O=C(CN1Cc2ccccc2OC(c2ccccc2)C1)N1CCCCC1c1cccnc1 (stereo unspecified) the results were PINK1 expr mod 0.6%.
Screening CCOC(=O)c1cc2c(=O)n3ccccc3nc2n(CCCOC)c1=NC(=O)c1c(-c2c(F)cccc2Cl)noc1C returned PINK1 expr mod 15%.
Screening Cc1cc(Cl)ccc1OCc1nc(-c2ccc(-n3cccc3)cc2)no1 returned PINK1 expr mod 1.0%.
For Cc1cc(C)cc(OC(=O)c2cc(-c3ccc(Cl)cc3)on2)c1 the results were PINK1 expr mod -0.5%.
`CCSc1ncc(Cl)c(C(=O)Nc2cccc(Cl)c2)n1` gave PINK1 expr mod 0.8%.
`CCOc1ccc(NC(=O)CSc2nnc3scc(-c4ccccc4)n23)cc1` gave PINK1 expr mod -0.9%.
Screening CCOC(=O)c1cccc(NC(=O)NC2COc3ccccc3C2)c1 (stereo unspecified) returned PINK1 expr mod 1.7%.
Screening O=c1c(=O)n(-c2cccc(Cl)c2)ccn1Cc1cccc(F)c1 returned PINK1 expr mod 0.3%.
Screening COc1ccc(-c2nc3sc(CCNS(=O)(=O)c4ccccc4)c(C)n3n2)cc1 returned PINK1 expr mod 3.3%.
Screening CCOC(=O)C1CCCN(C(=O)c2cccc(NC(=O)c3nsc4ccccc34)c2)C1 (stereo unspecified) returned PINK1 expr mod 0.5%.
For CCc1ccc(C2c3c(-c4cc(C)ccc4O)n[nH]c3C(=O)N2Cc2cccnc2)cc1 (stereo unspecified) the results were PINK1 expr mod 0.1%.
`O=C(Nc1cccc(C(=O)OCc2cc(=O)n3c4c(sc3n2)CCCC4)c1)c1cccc(Cl)c1` gave PINK1 expr mod -1.3%.
For Cc1ccc(-n2nnc3c(sc4nc(C)c(C)cc43)c2=O)cc1Cl the results were PINK1 expr mod 1.4%.
`CCc1ccc2[nH]c(=O)c(CN(Cc3ccco3)Cc3nnnn3Cc3ccco3)cc2c1` gave PINK1 expr mod 0.1%.
Screening C(=C\c1ccnc2ccccc12)/c1ccc(N(Cc2ccccc2)Cc2ccccc2)cc1 returned PINK1 expr mod 1.8%.
For O=C(CN1C(=O)CCSc2ccc(S(=O)(=O)N3CCCC3)cc21)Nc1cccc(F)c1 the results were PINK1 expr mod 1.0%.
`COCCNC(=O)c1ccc2c(c1)N(Cc1ccc(C(F)(F)F)cc1)C(=O)c1ccccc1S2` gave PINK1 expr mod 12%.
For Cc1ccc2nc(NC3=NC4(CCCC4)C4=C(CCCC4=O)N3)oc2c1 the results were PINK1 expr mod 10%.
`Cc1ccc(F)c(NC(=O)Nc2ccc3snnc3c2)c1` gave PINK1 expr mod 3.8%.
For O=C(COc1ccccc1C(=O)Nc1cccc(F)c1)Nc1ccc(Br)cc1 the results were PINK1 expr mod 0.0%.
